FGF22 binding: binders of human FGF22 protein, primary screen, FGF22 synaptogenesis inhibitor project, biophysical, thermal shift, single point; Fibroblast growth factor 22 (Homo sapiens), Q9HCT0; 340,000 compounds, 1.5% hits; recombinant FGF22 thermal shift, SYPRO orange fluorescence; percent of sucrose octasulfate shift, DMSO zero; calls only at 9.99 µM;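 active = melting point raised past a set limit in the mean and every replicate; inconclusive = no clear call; three in four hits are not shown here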
UCH37 inh: inhibitors of human UCH37 deubiquitinase, primary screen, biochemical, Ub-AMC cleavage, fluorescence | inhibition, % (concentration not given with the values) | purified proteasome/UCH37 | 330,000 compounds, 0.33% hits | Ubiquitin carboxyl-terminal hydrolase isozyme L5 (Homo sapiens), Q9Y5K5 | AID 588478, 2011;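 active = mean of two replicates above 20%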;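 note: 0% = compound-free wells with enzyme and 100% = wells lacking proteasome; stock transfer was 100 nL into about 20 µL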
Target sequence (Q9Y5K5 whole entry, looked up): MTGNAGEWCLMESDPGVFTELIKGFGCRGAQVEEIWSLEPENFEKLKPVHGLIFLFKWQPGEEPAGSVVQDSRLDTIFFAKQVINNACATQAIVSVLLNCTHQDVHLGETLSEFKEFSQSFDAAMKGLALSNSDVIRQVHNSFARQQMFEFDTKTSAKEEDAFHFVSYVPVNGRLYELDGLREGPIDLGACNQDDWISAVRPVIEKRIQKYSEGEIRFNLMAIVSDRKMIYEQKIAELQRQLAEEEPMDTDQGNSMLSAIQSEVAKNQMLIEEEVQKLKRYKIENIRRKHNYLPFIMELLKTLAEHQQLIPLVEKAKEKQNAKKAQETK
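Schedule: 30 min plus 25 min, room temperature / Material: human UCH37 within purified proteasomes / Technique: AMC fluorescence intensity at 355/460 nm / Buffer or medium: pH 7.4 Tris-HCl (50 mM) with ovalbumin, ATP-MgCl2, DTT / Controls: wells without proteasome as full block, compound-free enzyme plus substrate as uninhibited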
E coli growth: E. coli growth inhibition, primary screen, OD600. Escherichia coli growth, 23 h; active compounds read low. OD600 absorbance (no concentration beside the values). 330,000 compounds, 0.21% hits. AID 1053175, 2014;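 active = OD600 absorbance below the run mean of sample wells minus 3.6 SD, in any replicate, cut at about 0.56 in these data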;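 note: stock transfer was 300 nL into about 60 µL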
RanGTP-Imp inh: inhibitors of RanGTP-importin-beta interaction, primary screen, biochemical, FRET, CFP-Ran, YFP-importin-beta, homogeneous | 300,000 compounds, 1.1% hits | inhibition, % (concentration not given with the values) | Ran GTPase (GTP-bound) - importin-beta complex | cell-free CFP-Ran/YFP-importin-beta FRET ratio;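 active = most replicates above 15%; inconclusive = exactly half above 15%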;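 note: 0% = DMSO wells and 100% = Ran loaded with GDP instead of GTP; wells of about 40 µL received 100 nL stock; the first replicate is given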
HNF4A DNA FP: change in binding of human HNF4A to DNA, primary screen, biochemical, fluorescence polarization, FITC-DNA; Hepatocyte nuclear factor 4-alpha (Homo sapiens), P41235; 1 h; activity change, % at 10 µM; 360,000 compounds, 0.3% hits; AID 1224865, 2016; in the data active = activity change above about 30%, passing the limit was not always enough;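 note: controls were the assay level and a saturating level of protein; the project sought stronger binding though the title names inhibitors; some compounds called inactive have numbers as strong as hits; positive values seem to mean higher polarization but the record does not say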
Vif A3G: inhibitors of Vif binding to APOBEC3G peptide, primary screen, biochemical, TR-FRET, GST-Vif 1-94, biotin-A3G peptide, dose response retest (AID 1117319). TR-FRET GST-Vif / biotin-A3G peptide binding; higher % means a stronger effect; test concentration not given here; strong numbers were not always called active. 260,000 compounds, 0.57% hits. Virion infectivity factor (Human immunodeficiency virus type 1 group M subtype B (isolate …. one-dose inhibition, %; IC50 in µM for titrated hits;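 active = above the screen mean plus three standard deviations and confirmed in dose response; inconclusive = results disagree or hit not tested in dose response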;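 note: Vif residues 1-94 fused to GST binding biotinylated APOBEC3G peptide 110-148; 0% = full assay without inhibitor and 100% = GST in place of GST-Vif; retest series ran down from 100 µM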
AF4-AF9 inh: inhibitors of AF4 peptide binding to AF9, primary screen, biochemical, AlphaScreen, biotin-AF4 peptide, FLAG-AF9, single point; 350,000 compounds, 0.47% hits; Protein AF-9 (Homo sapiens), P42568; inhibition, % at 10 µM;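 active = every replicate reaching a set inhibition limit, whatever the replicate mean, cut at about 25% in these data; inconclusive = mean inhibition reaches that limit but some replicates miss it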;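 note: 0% = plate neutral control median and 100% = total signal loss; the record names both 10 and 1 µM as test concentration; the first replicate is given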
Target sequence (P42568 whole entry, looked up): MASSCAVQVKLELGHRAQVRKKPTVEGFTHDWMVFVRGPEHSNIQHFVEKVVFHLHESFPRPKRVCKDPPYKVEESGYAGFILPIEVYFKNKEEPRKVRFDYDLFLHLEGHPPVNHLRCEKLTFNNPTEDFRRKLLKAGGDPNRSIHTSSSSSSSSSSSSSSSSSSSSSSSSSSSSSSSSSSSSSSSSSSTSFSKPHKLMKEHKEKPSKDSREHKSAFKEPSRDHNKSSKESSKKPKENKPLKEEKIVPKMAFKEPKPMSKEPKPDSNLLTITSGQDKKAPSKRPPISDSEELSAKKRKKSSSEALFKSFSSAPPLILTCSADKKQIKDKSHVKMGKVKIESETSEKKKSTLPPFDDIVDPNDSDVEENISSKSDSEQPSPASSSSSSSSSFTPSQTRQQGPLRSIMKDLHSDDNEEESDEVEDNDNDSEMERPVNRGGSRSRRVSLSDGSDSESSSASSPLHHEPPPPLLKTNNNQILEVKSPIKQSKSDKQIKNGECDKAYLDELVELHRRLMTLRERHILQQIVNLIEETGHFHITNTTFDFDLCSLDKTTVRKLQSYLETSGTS
Numbers without * were called inactive; i = inactive; ? = inconclusive; . = not tested or not shown. Some of the compounds tested; count on the stated rates, not on these rows.

molecule	FGF22 binding	UCH37 inh	E coli growth	RanGTP-Imp inh	HNF4A DNA FP	Vif A3G	AF4-AF9 inh
Cc1ccccc1C(=O)N1CCN(c2ccc([N+](=O)[O-])c(NCc3cccnc3)c2)CC1	.	12.4	0.726	?	0.0	-1.5%	.
COc1ccc2c(c1)C=CC1(O2)N(CCO)c2ccccc2C1(C)C (stereo not drawn)	.	6.3	0.729	1.8	13.1	8.7%	8.7
C[C@@H]1CCC[C@]2(O[C@@H](CCO)C[C@H](O)[C@H]2O)O1	i	1.5	.	6.9	3.5	.	4.8
COc1ccc(CNC(=O)Cn2ccc(NC(=O)OCc3ccccc3)nc2=O)cc1	i	2.6	0.67	.	-0.5	.	.
Cc1ccccc1OCC(O)CN1CCC(C)CC1 (stereo not drawn)	i	0.7	0.648	?	0.6	.	-1.4
Cc1ccccc1NC(=O)C(Cc1ccccc1)n1cccc1 (stereo not drawn)	i	4.0	0.726	4.7	0.3	.	4.0
CCOC(=O)N1CCN(Cc2nc3c(c(=O)[nH]c(=O)n3C)n2Cc2cc(C)ccc2C)CC1	i	2.6	0.726	2.1	-3.2	-4.3%	-1.3
S=C(NC1CCCC1)N1CCN(C/C=C/c2ccccc2)CC1	i	5.8	0.658	4.2	-5.9	1.2%	4.6
CSCCC(NC(=O)c1ccc(Cl)cc1Cl)C(=O)NNC(=O)c1csc(N2CCOCC2)n1 (stereo not drawn)	i	-2.3	0.714	-1.0	-2.1	.	-14.1
O=C(OCCN1C(=O)c2cccc3c(N4CCOCC4)ccc(c23)C1=O)c1ccccc1Cl	.	-16.4	0.7	-388.8	16.7	.	.
CCn1c2ccccc2c2cc(NC(=O)COC(=O)c3ccccc3Br)ccc21	i	3.8	0.723	-2.0	1.6	-6.1%	2.1
Cc1cc(C)cc(NC2=NC3(CCCCC3)N=C(N)N2)c1	.	2.2	0.764	-1.4	0.1	-5.4%	.
N#Cc1c(N)oc(-c2cccs2)c1-c1cccs1	.	-5.9	0.815	0.7	9.5	1.2%	.
Cc1ccc(S(=O)(=O)N(C)C)cc1NC(=O)C(C)OC(=O)c1cc[n+]([O-])cc1 (stereo not drawn)	i	1.7	0.705	.	-0.7	.	-0.1
NC(=O)c1cccc(-c2ccnc3c2CC(C(=O)NCc2ccccc2)O3)c1 (stereo not drawn)	i	.	.	.	2.4	.	2.1
COc1cc(NC(=S)N2CCC(C(N)=O)CC2)c(OC)cc1Cl	i	31.0*	0.672	8.5	1.2	-9.4%	-4.0
Cc1ccc(S(=O)(=O)Nc2ccc(NC(=O)Nc3cccc(C(F)(F)F)c3)cc2)cc1	i	4.6	0.659	7.2	-1.4	.	3.2
CC(=O)Nc1cc2c(cc1C(=O)c1ccc(C)cc1)OCCO2	.	3.2	0.782	-3.2	1.4	0.6%	.
CC(C)c1cccc(C(C)C)c1NC(=O)CCN1C(=O)NC2(CCCC2)C1=O	i	0.6	0.651	.	0.4	-2.6%	0.7
Cc1ccc(C(=O)Nc2cccnc2)cc1S(=O)(=O)N1CCCC1	i	-0.9	0.694	-4.3	-3.3	1.4%	-0.1
CC(C)(C)NC(=O)C(c1ccccc1)n1c(=O)c(-c2ccccc2)nc2ccccc21 (stereo not drawn)	i	.	.	.	4.2	.	?
CC(=O)N[C@@H](Cc1ccc(OC(F)(F)F)cc1)C(=O)O	i	4.6	0.647	2.2	0.1	-7.6%	-3.8
COc1cc(-c2noc(C)c2C(=O)NCCc2ccccc2)cc(OC)c1OC	i	3.0	0.65	.	-1.6	.	1.4
CN(C)C(=O)CSc1cccc2cccnc12	.	-96.3	0.703	-1.6	-4.1	1.4%	.
O=C(NCCC(=O)N1CCN(S(=O)(=O)c2ccccc2Cl)CC1)Nc1ccccc1	i	0.8	0.716	.	4.5	-11.7%	-4.2
Cc1cc(=O)[nH]c(SCC(=O)N2C(C)CCCC2C)n1 (stereo not drawn)	i	6.2	0.712	-2.2	-1.7	.	-0.1
CCNc1nc(NCC)n2c(SCC(=O)Nc3ccccc3Cl)nnc2n1	i	0.8	0.697	-3.3	-4.6	-1.6%	-0.1
Cc1ccc(-c2nc(C3CCCN(S(=O)(=O)c4ccc(C(F)(F)F)cc4)C3)no2)cc1 (stereo not drawn)	.	1.1	.	?	1.9	4.9%	.
O=C(CN1C(=O)c2ccccc2S1(=O)=O)NCCC1=CCCCC1	.	-1.7	0.737	-2.1	2.5	1.3%	.
COc1ccc(S(=O)(=O)N(CCCN2CCOCC2)Cc2cccc(OC)c2OC)cc1	.	4.5	0.684	5.4	0.1	-2.7%	.
O=C(N1CCOCC1)N1CCC(c2nc(-c3ccc(S(=O)(=O)N4CCOCC4)cc3)no2)CC1	.	4.5	0.65	0.1	-2.5	-8.5%	.
Cc1ccc(-n2[nH]c(C)c(C=NC34CN5CN(CN(C5)C3)C4)c2=O)cc1C	.	8.1	0.777	0.6	-1.4	-6.8%	.
COc1cccc(CNC(=O)CCS(=O)(=O)c2cccc3nsnc23)c1	.	6.5	0.662	5.0	2.9	8.2%	.
CSC(=Nc1ccccc1)C(C#N)c1nc2ccccc2[nH]1 (stereo not drawn)	i	6.8	0.712	4.2	-3.4	6.8%	-4.4
CCN1CCc2nc(NC(=O)c3ccccc3)sc2C1	.	5.9	0.672	52.6*	30.0	25.4%	.
CCOC(=O)c1c(C=O)c2ccccc2n1CC	i	.	.	2.9	-1.7	.	-2.2
CCn1cc(/C=C(\NC(=O)c2ccccc2F)C(=O)N2CCN(C)CC2)c2ccccc21	i	.	.	.	0.1	-2.8%	3.1
CCOC(=O)C1=C(C)N=C2SCCC(=O)N2C1c1cc(Br)ccc1OC (stereo not drawn)	.	4.8	0.688	-1.5	-1.2	.	.
CC1(C)O[C@@H]2C[C@H]3[C@@H]4C[C@H](F)C5=CC(=O)CC[C@]5(C)[C@H]4[C@@H](O)C[C@]3(C)[C@]2(C(=O)CO)O1	i	-0.9	.	.	-1.7	20.2%	-2.4
O=C(CCCOc1ccc(Cl)cc1Cl)NCc1ccncc1	i	3.3	0.707	1.7	0.6	-3.8%	-0.3
CCc1cc2c(SCC(=O)Nc3ncc(Cl)c(C)c3Cl)ncnc2s1	i	1.4	0.679	1.0	5.3	-7.5%	-1.8
NCCNC(=O)Cc1cccc(NC(=O)Cc2ccc(Nc3ncnc4c3ncn4[C@@H]3O[C@H](CO)[C@@H](O)[C@H]3O)cc2)c1	i	3.6	.	-0.2	1.1	10.8%	-2.4
CC(OC(=O)CCN=C1NS(=O)(=O)c2ccccc21)C(=O)Nc1ccc(F)cc1Cl (stereo not drawn)	i	-0.3	0.626	-1.1	3.3	2.4%	-1.2
CN(CCN1CCOCC1)Cc1nc(-c2ccc(Cl)cc2)no1	i	4.2	0.675	1.1	3.2	6.4%	-36.1
COc1ccccc1-c1cc(C(=O)N2CCN(c3ccccc3OC)CC2)no1	i	4.1	0.709	0.6	2.2	2.8%	7.4
COc1ccc(-c2cc(C(=O)Nc3c(C)n(C)n(-c4ccccc4)c3=O)no2)cc1OC	i	3.6	0.674	11.5	-0.5	-4.5%	-46.0
O=C(Nc1cccnc1N1CCOCC1)c1cc2ccccc2oc1=O	.	5.4	0.705	4.5	-1.5	.	.
Cc1cc(CNC(=O)C(C)Cc2ccccc2)nn1C (stereo not drawn)	i	1.6	0.684	5.2	-4.7	.	-8.9
O=C(COC(=O)c1ccc(Br)o1)c1ccc(S(=O)(=O)N2CCCCC2)cc1	i	2.7	0.676	.	2.6	1.1%	-2.8
O=C(c1ccc2c(c1)OCO2)N(CC1CCCO1)C1(C(=O)NC2CCCC2)CCCCC1 (stereo not drawn)	.	1.7	0.737	-0.7	-2.4	-2.7%	.

Additional structures follow.
molecule	FGF22 binding	UCH37 inh	E coli growth	RanGTP-Imp inh	HNF4A DNA FP	Vif A3G	AF4-AF9 inh
CC(C)(C)NC(=O)NC(=O)COC(=O)C1c2ccccc2Oc2ccccc21	i	5.2	0.686	2.2	2.2	.	-9.3
COc1ccc(NC(=O)C(C)N2c3cccc4cccc(c34)S2(=O)=O)cc1OC (stereo not drawn)	.	-3.5	0.66	-1.7	-1.2	-6.4%	.
CCOC(=O)C1CCN(c2cc3c(cc2NC(=O)c2cc(OC)ccc2Br)n(C)c(=O)n3C)CC1	i	4.3	0.676	-19.4	-2.3	.	7.5
C/C(=N\NC(=O)c1cccnc1)c1cc(C)oc1C	i	.	.	-0.8	-3.1	2.4%	-3.8
CCc1nc(N2CCN(C(=O)c3ccccc3)CC2)c(C#N)c2c1COC(C)(C)C2	.	-66.8	0.685	.	-1.1	-0.9%	.
Cc1cc(C)nc(NC(=O)CSc2ccccn2)n1	.	0.0	0.617	0.6	1.8	0.1%	.
CCc1ccc(OCCCC(=O)Nc2ccc(S(N)(=O)=O)cc2)cc1	i	0.0	0.662	5.3	-0.4	.	-1.0
O=S(=O)(Cc1ccc(Cl)cc1)Nc1ccc(Cl)cn1	i	-0.5	0.728	1.0	0.9	7.1%	0.3
OCC1(CCOc2ccccc2)CCN(Cc2ccncc2)CC1	i	-1.2	0.653	-2.3	-0.5	.	3.8
CC1(C)ON=C(c2ccc(C(F)(F)F)cc2)NC1=O	i	.	.	.	-1.2	.	-2.4
CC1=C(C#N)c2nc(N)c(C#N)c(C)c2/C1=C\c1ccc(OCC(=O)O)c(Cl)c1	i	-23.7	0.687	1.8	1.0	?	2.1
CCN1CCN(S(=O)(=O)c2ccc(Cl)c(C(=O)NCCc3ccccc3)c2)CC1	i	3.1	0.678	-0.6	1.9	-0.3%	1.0
N#C/C(=C/c1ccc(N2CCCCCC2)o1)c1ccc(F)cc1	.	7.0	0.767	26.8*	84.3	5.9%	.
COc1ccc([C@H]2CC(=O)C=C(c3ccccc3)C2)cc1	.	2.4	0.71	.	4.0	.	.
Cc1c(Cl)cccc1NC(=S)NN1CCOCC1	.	4.7	0.763	-0.3	-0.9	-3.6%	.
Cc1ccc(C)c(NC(=S)NC(NC(=O)N(C)C)C(Cl)(Cl)Cl)c1 (stereo not drawn)	.	5.8	0.708	-2.8	2.9	5.1%	.
O=C(Cn1cnc([N+](=O)[O-])c1)NCCc1ccccc1	i	.	.	4.5	-4.1	11.5%	-5.3
CC1CCN(C(NC(=O)c2ccco2)C(=O)c2ccccc2)CC1 (stereo not drawn)	.	1.4	0.674	-0.5	1.7	-9.1%	.
N#CCSc1nc2[nH]ncc2c(=O)n1-c1ccccc1Br	.	1.3	0.723	-14.3	-1.0	2.9%	.
CCN(C[C@H]1N[C@@](C)(C(=O)OC)[C@H]2C(=O)N(C)C(=O)[C@@H]12)C(=O)c1ccc(F)cc1	i	3.4	0.686	.	1.0	3.5%	-1.8
